Compound activity as filed in PubChem BioAssay.
2A Renilla: Primary qHTS Assay for Foot and Mouth Disease Virus Antivirals against NCGC Sytravon and CBC Compound Libraries: Renilla Luciferase Signal; HEK cells with a luciferase reporter of 2A StopGo recoding; Potency, µM (top dose mostly 57.5 µM), for inactives: at the highest dose signal change, negative = less light; hit rate 0.32% among 120,000; AID 1745857, 2022; active means well fitted falling curve with a large enough effect; inconclusive means small, poorly fitted or top-dose-only effect; inactive means no such curve, though single readings can be large or run the other way; also: nearly all actives have a fitted effect of over 55% in size; overnight with compound
StopGo FLuc: Primary qHTS Assay for Foot and Mouth Disease Virus Antivirals against NCGC Sytravon and CBC Compound Libraries: Firefly Luciferase Signal; HEK cells with a luciferase reporter of 2A StopGo recoding; Potency, µM (top dose mostly 57.5 µM), for inactives: top-dose signal change, negative = less light; hit rate 0.23% among 120,000; AID 1745856, 2022; active = well fitted falling curve with a large enough effect; inconclusive = small, poorly fitted or top-dose-only effect; inactive = no such curve, though single readings can be large or run the other way; also: nearly all actives have a fitted effect of over 60% in size; overnight with compound
Active calls of the source: *; ? = inconclusive; & = joins results of further samples; [ ] = another dose, or the depositor's remark. % is scaled to controls: 0 for no effect and ±100 for the full control effect; potency is read from the fitted curve at half-maximal effect. The list is partial; the hit share may differ from the screen's.

Under each structure: StopGo FLuc | 2A Renilla
> Cc1ccc(S(=O)(=O)c2c(C)c(C)n(Cc3ccco3)c2N)cc1
 : 0% | 72%[activator]
> Cc1nn(C)c2c1c(C(F)(F)F)cc(=O)n2C(C)C(=O)NCCc1ccccc1 (stereo not given)
 : -14% | -20%
> CCN(CCCNC(=O)c1nn(-c2ccc(C)cc2)c(=O)c2c1c1ccccc1n2C)c1ccccc1
 : -8% | -8%
> CSCc1ccc(C(=O)Nc2ccccc2C(F)(F)F)cc1
 : 224%[activator] | 13%
> CCC(=O)Oc1ccc2oc(=O)c(-c3ccc(OC)cc3)c(C)c2c1
 : 115%[activator] | 74%[activator]
> Cc1ccc(-c2cc(C(=O)Nc3ccccn3)c3ccccc3n2)s1
 : 58%[activator] | 4%
> CCOCCCNC(=O)C(c1ccc(Cl)cc1)N(Cc1ccc2c(c1)OCO2)C(=O)c1ccc(NC(C)=O)cc1 (stereo not given)
 : -4% | 82%[activator]
> COc1ccc(OC)c(C(C)NC(=O)Cc2cccs2)c1 (stereo not given)
 : -6% | 14%
> CCC(=O)N1CCc2cc(Br)cc(S(=O)(=O)Nc3ccccc3C(=O)OC)c21
 : -9% | 83%[activator]
> COc1ccc(NC(=O)Cc2c(C)c3ccc(OC)cc3oc2=O)c(OC)c1
 : 3% | 12%

Retrieved by compound from above (six):
Under each structure: StopGo FLuc | 2A Renilla
> Cc1nn(C)c2c1c(C(F)(F)F)cc(=O)n2C(C)C(=O)NCCc1ccccc1 (stereo not given)
 : -14% | -20%
> CCOCCCNC(=O)C(c1ccc(Cl)cc1)N(Cc1ccc2c(c1)OCO2)C(=O)c1ccc(NC(C)=O)cc1 (stereo not given)
 : -4% | 82%[activator]
> CCN(CCCNC(=O)c1nn(-c2ccc(C)cc2)c(=O)c2c1c1ccccc1n2C)c1ccccc1
 : -8% | -8%
> Cc1ccc(-c2cc(C(=O)Nc3ccccn3)c3ccccc3n2)s1
 : 58%[activator] | 4%
> Cc1ccc(S(=O)(=O)c2c(C)c(C)n(Cc3ccco3)c2N)cc1
 : 0% | 72%[activator]
> CCC(=O)Oc1ccc2oc(=O)c(-c3ccc(OC)cc3)c(C)c2c1
 : 115%[activator] | 74%[activator]

Further entries:
Under each structure: StopGo FLuc | 2A Renilla
> Cc1oc(-c2ccccc2Cl)nc1CS(=O)(=O)CC(=O)N1CCOCC1
 : -5% | -7%
> COc1cccc(C(=O)Nc2ccccc2C(=O)OCc2cc(=O)n3c4c(sc3n2)CCCC4)c1
 : 17% | 8%
> Cc1ccc(C)c(N2CCN(C(=O)c3ccc(-c4nc(COc5ccccc5)c(C)o4)cc3)CC2)c1
 : -11% | -12%
> Cc1ccccc1CSc1nc2c(sc3ccccc32)c(=O)n1CCCC(=O)NCCCOC(C)C
 : -22% | -18%
> FC(F)(F)c1cc(-c2ccccc2)nc(N2CCN(Cc3ccccc3)CC2)n1
 : 10% | 5%
> COC(=O)C1=C(C)N(C)C(=O)NC1c1ccccc1OC(F)F (stereo not given)
 : -5% | -3%
> Cc1ccc2nc(-c3c[nH]c4ccccc34)c(Nc3ccc(F)cc3)n2c1
 : 6% | -12%
> O=S(=O)(c1ccc2[nH]c3c(c2c1)CCCCC3)N1CCN(c2ccccc2)CC1
 : -29% | -8%
> Cc1ccccc1C(=O)NC12CC3CC(CC(C3)C1)C2
 : 21% | 37%[activator]
> Cc1ccc(C)c(N2CCN(C(=O)c3c(C)oc4nc(C)nc(N5CCOCC5)c34)CC2)c1
 : -9% | -13%
> Cn1nc(C(=O)OCC(=O)NCc2ccccc2)c2ccccc2c1=O
 : 16% | 11%
> Cc1ccc(C)c(NC(=O)c2cc(-c3cc(C)oc3C)nc3onc(C)c23)c1
 : -12% | -9%
> Cc1ccc(C(=O)c2oc3ccccc3c2NC(=O)c2nc(S(C)(=O)=O)ncc2Cl)cc1F
 : 10%&-13% | -6%&-15%
> Cc1cccc(NC(=O)Cn2ncc3c4ccccc4n(Cc4ccccc4)c3c2=O)c1C
 : -1% | -6%
> Cc1ccnc(NS(=O)(=O)c2ccc(NC(=O)c3nc(SC(C)C)ncc3Cl)cc2)n1
 : -5% | -13%
> CN(C)c1ccc(NC(=O)COC(=O)c2cccc(S(=O)(=O)N3CCc4ccccc43)c2)cc1
 : -4% | -3%
> CCOC(=O)C1CCN(CCC(=O)Nc2ccc(OC)cc2)CC1
 : -11%&-16% | -8%&-14%
> CC1OC(C)OC(C)O1 (stereo not given)
 : -13%[11.5 µM] | -8%
> CCC(Sc1nnc(C)n2c1cc1occc12)C(=O)Nc1ccccc1OC (stereo not given)
 : 16% | 12%
> CC(C)[C@H](NC(=O)c1c(F)cccc1F)C(=O)O
 : 0% | 0%
> O=C(/C=C/c1ccc2ccccc2c1)c1ccc(F)cc1F
 : 78%[activator] | -10%[1.06 µM]
> COC(=O)C1=C(C)C=C(N2CCOCC2)C(C(=O)OC)C1c1ccc(OC)cc1 (stereo not given)
 : -9% | 2%
> Cc1cccc(C(=O)NC(NC(C)(C)C)C(Cl)(Cl)Cl)c1 (stereo not given)
 : -2% | 10%
> O=C(Cn1nc(-c2ccccc2F)ccc1=O)NCc1ccccc1Cl
 : 69%[activator] | 22%
> CC(=O)Nc1ccc(NC(=O)c2ccc3ccn(C)c3c2)cc1
 : 176%[activator] | 1%
> CC1CCc2[nH]c3ccc(C(=O)NC4CCCC4)cc3c2C1 (stereo not given)
 : 22% | 18%
> C=CCn1c(N2CCCCC2)nc2c1c(=O)[nH]c(=O)n2C
 : 0% | 33%[activator]
> COc1ccc(OC)c(NC2c3ccccc3C(=O)N2c2cccnc2)c1 (stereo not given)
 : 0% | -3%
> Cc1ccc(C(=O)Nc2cccc(-c3nc4ccccc4s3)c2C)c(C)c1
 : 35%[activator] | -3%
> Cc1ccccc1OCCSc1nc2ccc(NC(=O)c3cccc(F)c3)cc2s1
 : -11% | 20%
> COc1ccc(-c2c(C)c3cc(O)ccc3oc2=O)cc1OC
 : 34%[activator] | 75%[activator]
> CC(Cl)C(=O)NC1CCCCC1C (stereo not given)
 : 15% | 4%
> NS(=O)(=O)c1cccc(C(=O)O)c1
 : -3% | 1%
> COc1cc(C2C(=O)N(C3CCCCCC3)CC(=O)N2Cc2ccccc2)ccc1OC(C)C (stereo not given)
 : -19% | -1%
> N#Cc1cc(C(=O)c2cc(F)ccc2O)cn(-c2ccccc2C(=O)O)c1=O
 : 4% | -17%
> Cc1cc(NC(=O)CSc2nccn2-c2cccc(Cl)c2)on1
 : 6% | 3%
> Cc1ccc(-n2nc(C(=O)N3CCC(C)CC3)c(=O)n(C)c2=O)cc1
 : -6% | -7%
> CCC(C)(C(=O)NC1CCCCC1)N(Cc1cccs1)C(=O)Cc1cccs1 (stereo not given)
 : -12% | 19%
> COc1ccc(CCNC(=O)c2cc(-c3ccccc3O)n[nH]2)cc1OC
 : 16% | 0%
> COc1ccccc1Nc1nc2ccccc2nc1NS(=O)(=O)c1ccc(Cl)s1
 : 1% | 2%
> Brc1ccc(-c2noc(-c3cnccn3)n2)cc1
 : 141%[activator] | 1%
> CC1CCCCN1CCCNC(=O)c1sc2ncccc2c1-n1cccc1 (stereo not given)
 : -9% | 5%
> COc1ccc2nc3oc(C(=O)Nc4cccc(C(F)(F)F)c4)cc3cc2c1
 : -7% | 3%
> Cn1nc(C(=O)NCc2ccccc2)c2c1-c1ccccc1S(=O)(=O)C2
 : -20% | 5%
> CCOc1ccc(C(C)(C)C)cc1S(=O)(=O)NCc1ccco1
 : -7% | 21%
> O=C(OCc1nnc(-c2ccc([N+](=O)[O-])cc2)o1)C1(c2ccc(Cl)cc2)CCC1
 : 13% | -9%
> O=C(O)c1cc(-c2ccccc2)nc2ccccc12
 : 20% | 1%
> Cc1cc(C)c2nc(-c3ccncc3)cc(C(=O)Nc3nccs3)c2c1
 : -2% | -5%
> C[C@H]1O[C@@H](O[C@H]2CC[C@@]3(C)[C@H](CC[C@@H]4[C@@H]3C[C@@H](O)[C@]3(C)[C@@H](C5=CC(=O)OC5)CC[C@]43O)C2)C[C@H](O)[C@@H]1O[C@H]1C[C@H](O)[C@H](O[C@H]2C[C@H](O)[C@H](O[C@@H]3O[C@H](CO)[C@@H](O)[C@H](O)[C@H]3O)[C@@H](C)O2)[C@@H](C)O1
 : -80%[11.5 µM] | -78%
> CCC(CO)Nc1nc2c(c(=O)n(Cc3ccc(F)cc3)c(=O)n2C)n1C (stereo not given)
 : -8% | -14%

(listing goes on)
Under each structure: StopGo FLuc | 2A Renilla
> N#C/C(=C\c1ccc(-c2ccc(Br)cc2)o1)C(=O)c1ccccc1
 : 0% | -3%
> CCc1ccc(-c2noc(CSc3nnc(C4COc5ccccc5O4)o3)n2)cc1 (stereo not given)
 : 89%[activator] | 29%
> CCc1ccccc1NC(=O)Nc1cc(C(=O)NCc2ccc(C)cc2)ccc1N1CCCC1
 : 1% | 3%
> Cc1ccccc1C(=O)NNc1ncnc2c1cnn2-c1cccc(Cl)c1
 : 4% | 8%
> COc1ccccc1Cn1cc(C(=O)c2ccc(C)cc2)c(=O)c2cc(C)ccc21
 : 0% | -5%
> CCCCCCCCOc1ccc(/C=C(/C#N)c2nc3ccccc3[nH]2)cc1
 : 105%[activator] | -18%
> CCCn1c(/C=C/c2ccccc2)nc2ccccc21
 : 132%[activator] | 2%
> Cc1ccc(CNC(=O)C2CCCN(S(=O)(=O)c3cc(-c4noc(C)n4)ccc3C)C2)cc1 (stereo not given)
 : 6% | 2%
> O=[N+]([O-])c1c(Nc2cccc(Cl)n2)ccc2nonc12
 : 5% | ?
> CCCCN(CC)c1nc(-c2ccc([N+](=O)[O-])cc2)nc2ccccc12
 : 13% | -10%
> Cc1c2occ(C(C)(C)C)c2cc2c1oc(=O)c1ccccc12
 : ? | 30%
> CCOc1ccc(Cn2c(=O)sc3ccccc32)cc1
 : -8% | -10%
> Cc1cccc(Cn2c(N3CCN(c4ccccn4)CC3)nc3c2c(=O)n(C)c(=O)n3C)c1
 : -6% | -9%
> Cc1nn(-c2nc3ccccc3o2)c2c1C(c1cccc(C(F)(F)F)c1)CC(=O)N2 (stereo not given)
 : -1% | -7%
> COCCOc1ccc(-c2ccc(C#N)cc2)cc1
 : 0% | -28%
> N#Cc1c(SCCN2CCOCC2)nc(N2CCCCC2)c2c1CCCC2
 : -19% | -16%
> COc1ccc(OC)c2sc(N3CCN(C(=O)C4CC4)CC3)nc12
 : 9% | -1%
> COc1ccc(OCC(=O)Nc2cccc(-c3nc4cc(C)ccc4o3)c2)cc1
 : 204%[activator] | 11%
> CCN(CC)S(=O)(=O)c1ccc2c(c1)c(=O)c(C(=O)NCCc1ccccc1)cn2C
 : -30% | -6%
> Cc1ccccc1-c1nn2c(=O)cc(N3CCN(S(=O)(=O)c4ccc(F)cc4)CC3)nc2s1
 : 4% | -16%
> CCc1ccc(CNC(=O)c2ccc(CSCc3ccc(C)cc3)o2)cc1
 : 11% | 11%
> O=C(NCc1noc(-c2ccco2)n1)c1ccc(Br)cc1
 : 17% | 12%
> CCOc1ccc(CN2CCc3nc(N4CCN(c5ccccc5OC)CC4)ncc3C2)cc1OC
 : ? | ?
> CCc1cccc(NC(=O)CN2c3ccccc3S(=O)(=O)c3ccccc32)c1
 : -3% | -7%
> O=C(NN1CCOCC1)c1ccn(COc2ccc(Br)cc2)n1
 : 6% | -11%
> COc1ccc(NC(=O)c2c(N)c(C(=O)c3ccc(OC)cc3)n3ccccc23)cc1
 : -8% | -17%
> CCCOc1ccc(Br)cc1C1C(C(=O)OCC)=C(C)Nc2nnnn21 (stereo not given)
 : 2% | 18%
> COc1ccccc1NC(=O)C1=C(C)Nc2nc(-c3ccco3)nn2C1c1ccccc1 (stereo not given)
 : -11% | -1%
> CCC(=O)Nc1ccc(-c2csc(NCCN(CC)CC)n2)cc1
 : 5% | -7%
> Cc1ccc(NC(=O)C(=O)NCC(c2cccnc2)N2CCOCC2)cc1Cl (stereo not given)
 : -22% | -16%
> CC(OC(=O)c1ccccc1O)C(=O)Nc1ccc2c(c1)OCO2 (stereo not given)
 : 93%[activator] | 5%
> CCNC(=O)c1cccc(NC(=O)/C=C/c2sccc2C)c1
 : 84%[activator] | 10%
> Cc1ccc(C(=O)OCC(=O)c2cccs2)cc1O
 : 68%[activator] | 6%
> CCOc1ccc(-n2c(Cc3ccccc3)nnc2SCc2nc(-c3cccs3)no2)cc1
 : -23% | -1%
> COc1ccc(CNCc2cccc3[nH]ccc23)cc1
 : 22% | 5%
> CCc1ccc(NC(=O)c2ccc3c(Cl)c4c(nc3c2)CCCC4)cc1
 : 31% | -2%
> O=C(NC1CCCC1)c1ccc(C(F)(F)F)cn1
 : 3% | -3%
> CC1CC1C(=O)Nc1cc(C(C)(C)C)ccc1O (stereo not given)
 : ? | ?
> Cc1ccc(NC(=O)c2nc(S(=O)(=O)Cc3cccc(C)c3)ncc2Cl)cc1
 : 22µM* | -4%
> CC1=C(c2ccc(Cl)cc2)S(=O)(=O)N=C1N1CCN(c2cccc(C(F)(F)F)c2)CC1
 : 5% | -15%
> CCc1noc2nc(C)nc(N3CCCC(C(=O)NCCc4ccc(Cl)cc4)C3)c12 (stereo not given)
 : -2% | -7%
> Fc1ccc(OCc2nnc(-c3ccccc3)o2)cc1F
 : 123%[activator] | 25%
> O=C(CCN1CCN(c2cnccn2)CC1)Nc1ccccc1Cl
 : 7% | -4%
> CCCCN(CC(=O)NC(=O)NCc1ccccc1)c1ccccc1
 : 12% | 16%
> CC(C)(C)CC(=O)NC1CC(=O)N(c2ccc3c(c2)OCCO3)C1 (stereo not given)
 : 1% | 0%
> CCOC(=O)COc1ccc2cc(-c3ccccc3)c(=O)oc2c1
 : 60%[activator] | 4%
> Cn1c(=O)c2cc(C(=O)NCCCN3CCN(c4ccccc4F)CC3)sc2c2ccccc21
 : -15% | 3%
